# Screening results from PubChem.
# RN4220 kill = growth inhibition of S. aureus RN4220, primary screen, OD600 | 16 h | inhibition, % (concentration not given with the values) | 330,000 compounds, 0.33% hits | AID 1259311, 2017;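 active means z-score of -3 or lower and OD600 up to 0.18 on both plates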;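 further: plate controls were untreated cells for no effect and reference antibiotic for full effect; stock transfer was 100 nL into about 80 µL; one replicate is shown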
# BJeLR lethal = MLPCN primary cell-based screen for lethality selective to Ras in HRASV12 cells | BJeLR (HRASV12) viability, CellTiter-Glo ATP luminescence, 48 h; reference of the scale not given here | inhibition, % (concentration not given with the values) | 300,000 compounds, 0.17% hits | AID 1554, 2009;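 active means replicate mean above 50%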;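 further: 50 nL library stock added to about 25 µL; numbers are from one replicate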
# Mtb hypoxia inh = PubChem AID 1159583 | M. tuberculosis hypoxia-regulated fluorescent reporter, fluorescence | 300,000 compounds, 0.1% hits | fluorescence inhibition, % (no concentration beside the values);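 active means 35 to 45% if threefold the growth effect, above 45% if 1.5-fold the growth effect; inactive means the rest, general growth blockers included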;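 further: wells of about 50 µL received 100 nL stock; 0% = vehicle wells and 100% = reference inhibitor wells; whole bacteria with a GFP reporter of the hypoxia response; strong numbers were not always called active; many hits fall short of the cut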
# ugtP null kill = growth inhibition of ugtP-null S. aureus, primary screen, RN4220 ugtP deletion, OD600; AID 1259309, 2017; 330,000 compounds, 0.54% hits; growth inhibition, % (no concentration beside the values); 16 h; some inactives read as strong as hits;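 active means z-score under -3 and OD600 up to 0.15 on both plates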;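 further: plate controls were untreated wells for no effect and antibiotic for full effect; wells of about 80 µL received 100 nL stock; the first replicate is given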
# PrP 5UTR inh = inhibition of PrP 5' UTR reporter expression; 340,000 compounds, 0.35% hits; cell-based PrP 5' UTR mRNA reporter, plate reader; inhibition, % (concentration not given with the values);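 active means every replicate at 50% or more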;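 further: 0 = median of the neutral control wells; tested in H4 reporter cells; numbers are from one replicate; inactives centre near -14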
# Bead autofluor = counter-screen for toxin protease inhibitors: compound fluorescence; 360,000 compounds, 3.1% hits; compound autofluorescence counterscreen, microsphere flow cytometry; stronger effect = higher value; fluorescence intensity (test concentration not listed);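 active means at least 3 SD above the mean of all compounds, about 16000 in these data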;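 further: 100 nL of 1 mM stock went into each well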
# Mtb hypoxia inh growth = further read-out of Mtb hypoxia inh, marked with its call; growth inhibition, %; measured here: M. tuberculosis growth (absorbance);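 0% = vehicle and 100% = reference antibiotic; read after six days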
# * marks the source's active call; other numbers are inactive results; / = not tested or not shown. Compounds as they come. Share with any hit: about 3.9%.
SMILES,RN4220 kill,BJeLR lethal,Mtb hypoxia inh,Mtb hypoxia inh growth,ugtP null kill,PrP 5UTR inh,Bead autofluor
CC1=C(C(=O)Nc2cccnc2)C(c2cccnc2)n2ncnc2N1 (centres undefined),5.5,-8,5,3,1,-6,2534
COc1ccc(C2Nc3ccccc3C(=O)N2Cc2ccco2)cc1COc1ccc(NC(C)=O)cc1 (centres undefined),-1.5,3,/,/,1,-7,3003
Cc1ccc(CN2CCN(N=Cc3cccnc3)CC2)cc1,-2.4,/,-1,2,3,/,/
O=C(Nc1ccccc1-c1ccccc1)NC1CC2CCCC(C1)N2Cc1ccc(F)cc1 (centres undefined),-3.5,-11,4,8,5,-13,4279
O=C(O)CCSc1nnc(-c2ccncc2)n1-c1ccccc1,-0.4,-6,/,/,9,-19,4036
CCOC(=O)Cn1c(=NC(=O)CN2C(=O)CCC2=O)sc2cc(S(N)(=O)=O)ccc21,1.7,-5,11,1,8,-11,6451
Cc1ccc2c(ccn3cc4c(c(=O)n(C)c(=O)n4C)c23)c1,1.8,9,-4,-1,-12,-11,2042
CCCn1nc2cc(C(=O)NC3CCc4ccccc43)ccc2c1OCC (centres undefined),13,3,18,8,6,-7,3835
CC1CC(C)CN(C(=O)CCNC(=O)c2ccccc2Cl)C1 (centres undefined),2.9,-3,0,-4,0,-9,5918
O=C(Nc1nc(-c2ccc(Cl)s2)cs1)c1cccs1,54,1,7,5,99*,-103,8176
COc1cccc(OCC(=O)Nc2cc(NC(=O)COc3cccc(OC)c3)cc(C(=O)O)c2)c1,1.9,-8,4,-3,-1,3,4368
CSc1nsc(/C=C/Nc2ccc(F)cc2F)c1C#N,1.6,/,-14,3,3,-15,2043
CN(C)C(CNC(=O)c1cc(S(=O)(=O)N(C)c2ccccc2)ccc1Cl)c1cccs1 (centres undefined),7.1,-5,-4,13,3,-17,3327
CCOc1ccccc1N1CCN(CC(=O)NCCc2ccc(S(N)(=O)=O)cc2)CC1,16,-2,-3,10,15,-26,2668
Cc1nn(Cc2ccc(Cl)cc2Cl)c(C)c1NC(=O)Cn1nc([N+](=O)[O-])c(Cl)c1C,-2.3,9,/,/,8,-6,3013
COc1cccc(-c2nnn(CC(C)=O)n2)c1,-1.1,2,/,/,9,-88,3521
O=C(CN(Cc1ccc2c(c1)OCO2)C(=O)CNS(=O)(=O)c1ccccc1)NCC1CCCO1 (centres undefined),0.4,6,/,/,0,-24,3398
NC(=O)c1sc(=S)n(-c2ccc(Br)cc2)c1N,-2.3,2,/,/,4,-6,5382
O=C(Oc1cccnc1)c1ccc(Cl)cc1,1.1,2,7,13,-3,-37,8578
CC1CCCCC1NC(=O)c1cc(S(=O)(=O)N2CCCCC2)ccc1N1CCOCC1 (centres undefined),4.6,/,8,7,7,-2,8957
O=C(COC(=O)CNC(=O)c1ccccc1)Nc1cccc(Br)c1,8.0,13,2,-3,12,-27,7054
COc1ccccc1NC(=O)c1c(Nc2ccccc2C)sc(C(=O)Nc2cccc(Cl)c2)c1N,-11,-8,-7,-2,-16,4,1887
CCC1(CC)NC(=O)N(CC(=O)OCC(=O)Nc2ccc(F)c(F)c2F)C1=O,6.2,12,-11,-8,3,-6,3505
Nc1nc(CC(=O)CSc2ccc(Cl)cc2)nc(Nc2ccc(F)cc2)n1,2.8,5,11,-5,-4,/,/
O=[N+]([O-])c1ccc(Sc2nc3ccccc3o2)c([N+](=O)[O-])c1,25,34,12,9,52,-43,9693
# Continuation.
SMILES,RN4220 kill,BJeLR lethal,Mtb hypoxia inh,Mtb hypoxia inh growth,ugtP null kill,PrP 5UTR inh,Bead autofluor
C/C(N)=C(/C#N)C(=O)COC(=O)c1cc2c(s1)CCC(C)C2 (centres undefined),/,5,/,/,/,-3,3519
CC1(C)NC(=O)N(CCCCOc2ccccc2[N+](=O)[O-])C1=O,3.8,2,15,5,10,/,/
COc1cc(C=NNC(=O)c2cc(-c3ccc4c(c3)OCO4)n[nH]2)ccc1O,9.4,/,5,11,23,/,/
CCCCCCC1CC(CSC(=N)N)OC1=O (centres undefined),2.3,1,/,/,-7,-20,2658
COc1ccc(C=NNC(=O)c2cc(C3CC3)[nH]n2)cc1OC,0.9,/,5,1,6,/,/
COc1ccc(C2C(C#N)=C(N)N(c3sc4c(c3C#N)CCCC4)C3=C2C(=O)CC(C)(C)C3)cc1OC (centres undefined),-2.4,-1,-11,2,-16,-3,4164
CC1CCc2c(C(=O)OCC(=O)Nc3cccc(S(=O)(=O)N4CCCCCC4)c3)csc2C1 (centres undefined),-7.7,-13,2,2,3,-55,2599
Cc1ccc(S(=O)(=O)N2CCN(C(=O)COC(=O)CCCOc3ccccc3)CC2)c(C)c1,3.7,/,5,-2,5,-3,7927
CC(=O)N1CCN(C(=O)COc2ccc(N(C)S(=O)(=O)c3cccs3)cc2)CC1,7.8,-2,10,4,4,-2,4220
O=C(Cn1cc([N+](=O)[O-])cn1)Nc1ccc(Cn2cc(Br)cn2)cc1,-2.0,15,8,-2,2,-18,2384
Fc1ccc(CNc2nc3ccccc3n3cnnc23)cc1,6.5,-9,-6,-5,-3,-8,5902
CCOC(=O)CSc1nc(-c2cccs2)nc2c1c(=O)n(C)c(=O)n2C,17,-1,-12,-2,11,-10,5319
Cc1cc(S(=O)(=O)NCc2ccco2)c(C)s1,-2.6,2,11,12,-4,-2,2959
O=[N+]([O-])c1ccc(O)c(C2CCCCC2)c1,77,/,0,1,76,-19,3823
Cc1ccc2[nH]c3c(=O)n(CC(=O)NCc4ccco4)ncc3c2c1,-1.4,12,-9,-2,-19,3,/
COc1ccccc1N(CC(O)Cn1nc(C)cc1C)S(=O)(=O)c1ccccc1 (centres undefined),10,-2,14,9,3,-40,3943
CCOC(=O)N1CCN(C(=O)CCCn2c(=S)[nH]c3ccccc3c2=O)CC1,-2.7,-16,3,1,-9,2,3846
Cc1ccc2c(c1)=C/C(=C\c1c(O)[nH]c(=O)[nH]c1=O)C(=O)N=2,4.7,0,2,-3,10,-28,2019
COCCn1c(C)nnc1SCC(=O)NNC(=O)c1ccc(Cl)cc1,1.7,-2,-2,-4,5,-9,3911
Cc1ccc(OCC(=O)NCCCNC(=O)c2ccc(C)nc2)cc1,0.9,-7,8,25,-1,-4,5700
CCCC1=[N+](CC(C)=O)CCn2c(C)ccc21,6.9,-2,15,-1,12,-20,4152
Nc1nc(SCC(=O)N2CCc3ccccc3C2)[nH]c(=O)c1-c1ccccc1,2.6,-1,1,6,0,-19,9742
CCOC(=O)N1CCC(N2CC34C=CC(O3)C(C(=O)Nc3ccc(C(C)C)cc3)C4C2=O)CC1 (centres undefined),-3.6,/,/,/,4,1,4239
CCCc1nnc(NC(=O)c2ccc(S(=O)(=O)N(C)c3ccccc3OC)cc2)s1,13,/,9,2,0,-26,5699
COc1ccc(NS(=O)(=O)c2cccc(-c3nnc(-c4ccccc4)o3)c2)cc1,3.6,-2,/,/,-1,-6,2400

# Shown as labelled records: 2 of the compounds above.
Cc1nn(Cc2ccc(Cl)cc2Cl)c(C)c1NC(=O)Cn1nc([N+](=O)[O-])c(Cl)c1C
  RN4220 kill: -2.3
  BJeLR lethal: 9
  Mtb hypoxia inh: /
  Mtb hypoxia inh growth: /
  ugtP null kill: 8
  PrP 5UTR inh: -6
  Bead autofluor: 3013

CC1CCc2c(C(=O)OCC(=O)Nc3cccc(S(=O)(=O)N4CCCCCC4)c3)csc2C1 (centres undefined)
  RN4220 kill: -7.7
  BJeLR lethal: -13
  Mtb hypoxia inh: 2
  Mtb hypoxia inh growth: 2
  ugtP null kill: 3
  PrP 5UTR inh: -55
  Bead autofluor: 2599

# Remaining list, next part:
SMILES,RN4220 kill,BJeLR lethal,Mtb hypoxia inh,Mtb hypoxia inh growth,ugtP null kill,PrP 5UTR inh,Bead autofluor
CCC1(C)OC(=O)N2CCc3c(C)[nH]c4c(C)ccc(c34)C21C (centres undefined),3.9,-2,5,7,-5,-11,6529
CC(/C=C/c1ccc2c(c1)OCO2)=N\NC(=O)c1ccccc1,/,-1,/,/,/,-40,4408
CS(=O)(=O)N(CC(=O)Nc1ccccc1C(=O)N1CCOCC1)c1ccccc1,1.1,2,/,/,-2,-4,3617
CC1CN(S(=O)(=O)c2cc(C(=O)NC(C)c3cccnc3)ccc2Cl)CC(C)O1 (centres undefined),1.0,/,9,10,2,-7,4453
Cc1ccc(NC(=S)N(CCCN2CCCC2)Cc2cccn2Cc2ccc(Cl)cc2)cc1Cl,-3.2,4,-11,4,0,-1,4044
O=c1[nH]c(-[n+]2ccccc2)c(/C=N/N=C(\[O-])c2ccccc2)s1,/,7,/,/,/,-14,4358
CCOc1ccccc1N1CCN(C(=O)c2cc(S(=O)(=O)N3CCCCC3)ccc2C)CC1,-1.0,/,0,7,1,-6,4958
CN(C)c1ccc(/C=C(/NC(=O)c2ccccc2)C(=O)NCCCn2ccnc2)cc1,3.6,-8,2,-3,8,-21,5397
CCOc1ccc2[nH]c(=O)c(C(c3nnnn3Cc3ccco3)N3CCC(C)CC3)cc2c1 (centres undefined),-2.4,-2,/,/,-5,-26,5034
Cc1cc(C)cc(OCC(=O)O/N=C(\N)c2ccccc2Cl)c1,7.8,-11,3,3,21,-18,4187
CC(NC(=O)Cn1cc(C(F)(F)F)ccc1=O)c1ccc(F)cc1 (centres undefined),8.1,6,7,11,5,-11,4631
Cc1cccc(Cn2c(Sc3nc(C)cs3)nc3c2c(=O)[nH]c(=O)n3C)c1,10,-6,3,8,-16,-15,19241*
COc1ccccc1N1CCN(N=Cc2cc([N+](=O)[O-])ccc2Cl)CC1,4.7,/,0,10,-4,/,/
COc1ccc(NC(=O)C2CCCN(S(C)(=O)=O)C2)c(OC)c1 (centres undefined),-2.2,-10,-2,-10,-3,11,3031
Cc1cc(=O)[nH]c2sc(C(=O)N3c4ccccc4CC3C)c(N)c12 (centres undefined),8.9,/,15,6,5,-33,3676
Cc1ccc(C(=O)NCCC(=O)N2CCCC2)cc1,2.3,0,10,-4,10,-49,3057
CCc1nnc(NC(=O)c2ccc(COc3ccc(C)cc3)o2)s1,-2.3,14,-5,0,-3,-14,23447*
O=C1C=C(c2cccc(O)c2)CC(c2ccc(F)cc2)C1 (centres undefined),-3.6,/,9,8,5,/,/
COc1ccc(CNCCC(c2ccccc2)C2CCOC(C)(C)C2)cc1 (centres undefined),3.5,-1,-4,6,1,-23,4482
CC1CCCN(CCOCCOc2ccc(Br)cc2Cl)C1 (centres undefined),2.3,-5,12,13,4,-10,2691
Cc1csc(C(C)N(C)C(=O)c2ccc(OC3CCN(Cc4ccccn4)CC3)cc2)n1 (centres undefined),1.4,-1,7,6,5,-10,5901
CCOc1ccc(CCNC(=O)CN(C)S(=O)(=O)c2ccc3c(c2)CCC(=O)N3)cc1OCC,-1.9,8,-5,12,-8,-22,23279*
COc1ccc(/C=N/NC(=O)c2cc(-c3ccccc3)nc3ccccc23)cc1O,/,0,/,/,/,-38,3967
c1ccc(-n2nnnc2SCc2cccc(CSc3nnnn3-c3ccccc3)n2)cc1,-1.6,3,5,0,-3,5,2901
C=CCOc1ccc(/C=C/C(=O)OCC(=O)NCc2cccs2)cc1,3.5,-4,-2,9,2,-23,5388
# Continued:
SMILES,RN4220 kill,BJeLR lethal,Mtb hypoxia inh,Mtb hypoxia inh growth,ugtP null kill,PrP 5UTR inh,Bead autofluor
Cc1ccc2c(Cl)c(C(=O)Nc3cccnc3)sc2c1,1.1,1,5,3,-8,-85,2452
Cc1ccccc1N(CC(=O)NCCSc1ccccn1)S(=O)(=O)c1ccccc1,1.0,2,-7,1,-3,-12,4705
CCN(CC)C(=O)C1CCCN(c2ncnc3c2cnn3-c2cccc(C)c2)C1 (centres undefined),-1.7,-5,4,3,4,-6,2985
COc1cc(/C=N/N2CCCCC2)cc(OC)c1O,/,-13,/,/,/,-1,3682
CCOc1cc(S(=O)(=O)NCCc2ccccc2C)c(OCC)cc1-n1cnnn1,6.2,-9,-1,-1,-3,-28,8447
O=C(O)c1ccc(C=NNC(=O)c2cc3ccccc3cc2O)cc1,-2.3,/,7,7,-4,/,/
C/C(CC(=O)Nc1ccccn1)=N\NC(=O)Cc1cccc2ccccc12,/,3,/,/,/,-12,23733*

# As entered above.
# CCOc1ccc2[nH]c(=O)c(C(c3nnnn3Cc3ccco3)N3CCC(C)CC3)cc2c1 (centres undefined) in Bead autofluor → 5034
# COc1ccc(C2C(C#N)=C(N)N(c3sc4c(c3C#N)CCCC4)C3=C2C(=O)CC(C)(C)C3)cc1OC (centres undefined) in BJeLR lethal → -1
# O=C(O)CCSc1nnc(-c2ccncc2)n1-c1ccccc1 in PrP 5UTR inh → -19
